Bioassay records (PubChem BioAssay)
IP6K1 inhibitor – IP6K1 kinase inhibition; Q92551; 140,000 tested, 0.81% active; IP6K1 kinase, ADP-Glo luminescence, 2 h; active compounds read low; activity change, % (series mostly up to about 58 µM); AID 1645851; in the data active means activity change below about -25%
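ADP-Glo luminescence measures ADP made by human IP6K1 during a 2 h RT reaction with ATP/IP6 (mix at 1.3 mM/130 uM); top library doses 57.5 and 19.1 uM final.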
SNCA expr inh – inhibitors of alpha-synuclein (SNCA) gene expression; AID 1671194; Potency, µM (highest dose often 57.2 µM), without a hit: at the top dose activity change, negative = inhibition, actives largely listed as inhibitors; HEK-293 SNCA-luciferase knock-in, luminescence, 24 h; 140,000 tested, 0.17% active;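 further: potency means the concentration at half of the fitted maximal effect; plate controls were DMSO cells for no effect and cell-free wells for full effect; nearly all actives have a fitted effect of over 45% in size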
HEK293 viab – cell viability loss counter-screen | HEK-293-SNCA-luc viability, GF-AFC fluorescence, 24 h | Potency, µM (top dose mostly 57.1 µM), inactives show at the highest dose activity change, negative = cytotoxicity, usual class: cytotoxic | 150,000 tested, 0.12% active;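 further: potency means the concentration at half of the fitted maximal effect; 0% = DMSO-treated cells and -100% = medium-only wells without cells; nearly all actives have a fitted effect of over 30% in size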
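HEK-293-SNCA-luc cells (1500/well) plated 24 h, then exposed 24 h to a dilution series; GF-AFC added 30 min at 37C, fluorescence 405/540 nm; normalised to medium-only and DMSO wells, Hill fit.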
3T3 cytotox – NIH 3T3 cell cytotoxicity. NIH 3T3 viability, CellTiter-Glo ATP luminescence, 48-72 h. Potency, µM (titrated, usually from 96.7 µM), for inactives: top-dose activity change, negative = cytotoxicity, most hits filed as inhibitors. 94,000 tested, 4.3% active. AID 1345082; further: potency means the concentration at half of the fitted maximal effect; nearly all actives have a fitted effect of over 55% in size
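Cells were seeded at 400 per well, treated with pin-transferred compound, and kept 48 or 72 hr at 37 °C before CellTiter-Glo addition and luminescence imaging of cellular ATP.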
HEK293 tox – cytotoxic compounds in HEK 293 cells; HEK 293 viability, ATP luminescence (CellTiter-Glo), 48-72 h; Potency, µM (doses to about 115 µM), without a hit: top-dose activity change, negative = cytotoxicity, usual class: inhibitors; 94,000 tested, 6.6% active; further: potency means the concentration at half of the fitted maximal effect; nearly all actives have a fitted effect of over 60% in size
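HEK 293 seeded at 250 cells/well receive compound via pintool. After 48 or 72 hr at 37 degree Celsius, 5% CO2 and 95% humidity, CellTiter-Glo is dispensed and luminescence read following 10 min at room temperature.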
FLuc inh – Photinus pyralis luciferase inhibition; AID 1347043; purified P. pyralis luciferase, luminescence, biochemical; 76,000 tested, 2.5% active; P08659; Potency, µM (top dose mostly 115 µM), inactives show at the highest dose activity change, negative = inhibition, hits mostly inhibitors; further: potency means the concentration at half of the fitted maximal effect; nearly all actives have a fitted effect of over 65% in size
Target sequence (P08659 whole entry, looked up): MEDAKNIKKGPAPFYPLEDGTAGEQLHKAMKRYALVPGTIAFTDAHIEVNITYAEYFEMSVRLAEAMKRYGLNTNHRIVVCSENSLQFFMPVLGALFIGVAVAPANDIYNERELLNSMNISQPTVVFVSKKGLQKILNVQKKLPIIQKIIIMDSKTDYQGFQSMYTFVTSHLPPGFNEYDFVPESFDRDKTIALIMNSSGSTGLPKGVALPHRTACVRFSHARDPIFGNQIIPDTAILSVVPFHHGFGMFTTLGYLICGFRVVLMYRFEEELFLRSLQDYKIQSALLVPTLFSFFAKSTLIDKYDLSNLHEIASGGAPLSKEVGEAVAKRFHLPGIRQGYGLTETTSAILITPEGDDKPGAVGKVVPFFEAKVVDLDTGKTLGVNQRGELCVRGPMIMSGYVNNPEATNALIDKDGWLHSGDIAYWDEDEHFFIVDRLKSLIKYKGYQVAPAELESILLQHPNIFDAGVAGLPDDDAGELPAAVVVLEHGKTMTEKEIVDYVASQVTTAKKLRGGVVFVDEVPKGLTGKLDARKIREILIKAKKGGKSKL
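Purified P. pyralis luciferase (10nM final) in 50mM Tris acetate pH 7.5, 10mM Mg acetate, 0.01% Tween-20, 0.05% BSA with 10uM D-luciferin and 10uM ATP. Compounds titrated qHTS. Luminescence imaged on CCD.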
Starred values were filed as active, the others as inactive; i = inactive; u = inconclusive; x = not tested or not shown; [ ] = remark or other dose. Unless noted, the call rests on the fitted dose curve; in most records, active means well fitted curve in the direction sought with a large enough effect; inconclusive means small, poorly fitted or top-dose-only effect, or another doubt; inactive means no such curve, though single readings can be large; an effect the other way counts as inactive or inconclusive. Unless noted, on the % scale 0 is the no-effect control and ±100 the full control effect. This is a subset; the hit share may differ from the screen's.

Letter code: A = IP6K1 inhibitor; B = SNCA expr inh; C = HEK293 viab; D = 3T3 cytotox; E = HEK293 tox; F = FLuc inh
> CN(C)c1ccc(C(=O)NC2CCN(c3cc(-c4cccs4)[nH]n3)C2)cc1 (stereo not drawn)
  A: 0.0 | B: 9.2% | C: -13.5% | D: -21.4% | E: u | F: -15.7%

> CCOCCn1nc(C)cc1C(=O)N1CC[C@@](O)(COC)C(C)(C)C1
  A: 2.3 | B: -2.5% | C: -2.4% | D: 1.5% | E: -0.3% | F: -2.1%

> CC(C)OCCCNc1ncnc2c1CN(C1CCCCC1)C(=O)CN2C
  A: 3.1 | B: 14.3% | C: 5.3% | D: -9.1% | E: i | F: x

> COc1cccc(CC(=O)NCCc2ncc(C)n2CC2CC2)c1
  A: -6.2 | B: -3.6% | C: 8.5% | D: i | E: i | F: 6.9%

> O=C(NC1CCN(c2cc(-c3cccs3)[nH]n2)C1)c1cccc2[nH]ccc12 (stereo not drawn)
  A: 5.2 | B: u | C: u | D: u | E: u | F: -6.4%

> COc1cccc(NC(=O)Cn2c(N3CCN(c4ccccc4)CC3)nc(C)cc2=O)c1
  A: 0.1 | B: 4.7% | C: 3.0% | D: u | E: u | F: 4.1%

> NCCC[C@@H](N)C(=O)N1CCCC(c2ccccc2)(c2ccccc2)C1
  A: 32.2 | B: 4.9% | C: u | D: u | E: u | F: 9.9%

> COc1cc(OC)cc(-c2onc(C)c2C(=O)NCCc2ccc(F)cc2)c1
  A: 10.5 | B: -9.0% | C: u | D: -26.1% | E: u | F: -13.1%

> O=C(CNC(=O)c1cccc(-c2ccsc2)c1)NCc1cccs1
  A: 20.4 | B: -4.2% | C: 8.8%[12.5 µM] | D: u | E: -28.8% | F: x

> O=C(CNC(=O)c1cccc(-c2ccsc2)c1)NCCCc1ccccc1
  A: -3.1 | B: 8.1% | C: 3.0%[12.5 µM] | D: -19.4% | E: -28.2% | F: x

> O=C(CCc1cccc(F)c1)N1CCN(Cc2ccccc2)CC(O)C1 (stereo not drawn)
  A: 11.5 | B: -3.2% | C: -4.4% | D: -28.0% | E: -23.0% | F: 0.9%

> CCCN1CCCn2nc(CNC(=O)c3ccc(OC)nc3OC)cc2C1
  A: 0.8 | B: 4.0% | C: 3.2% | D: -16.3% | E: -0.1% | F: 3.3%

> Cn1cccc1C(=O)NCC1Cn2cccc2C(=O)N1Cc1ccccc1 (stereo not drawn)
  A: -0.4 | B: -4.9% | C: -4.0% | D: i | E: -23.4% | F: 0.6%

> CC(C)n1cc(-c2nc3cc(S(=O)(=O)N4CCCC4)ccc3n2C)cn1
  A: 10.7 | B: -31.8% | C: 2.8% | D: -34.9% | E: u | F: 5.3%

> CC(C)CCN1CC2(CCCN(C(=O)c3cc(C(F)(F)F)[nH]n3)C2)CCC1=O (stereo not drawn)
  A: 8.8 | B: -5.5% | C: -11.6% | D: 44.7µM* | E: -12.7% | F: 1.4%

> O=C(NC1CCCCC1)[C@@H]1C[C@@H](O)CN1C1CCN(C(=O)c2ccsc2)CC1
  A: 8.3 | B: 5.3% | C: 2.9% | D: -15.6% | E: -27.5% | F: -4.2%

> COCCS(=O)(=O)c1ncc(CN(CCO)Cc2ccccc2)n1Cc1ccccc1
  A: 2.2 | B: -23.0% | C: -10.1% | D: 2.8% | E: -3.9% | F: -0.1%

> COc1ccc(CC(=O)NCCNC(=O)c2cccc(-c3ccsc3)c2)cc1
  A: -3.0 | B: 6.4% | C: 8.2%[12.5 µM] | D: -13.2% | E: -25.8% | F: x

> O=C(C1CC1)N1CCCC(Nc2ccc(F)c(F)c2)C1 (stereo not drawn)
  A: 8.9 | B: 28.9% | C: -1.0% | D: -6.4% | E: -8.0% | F: 0.3%

> N#Cc1ccccc1CN1CCNc2nc(CNc3ccc(F)cc3)n(Cc3ccccc3)c2C1=O
  A: -19.5 | B: -34.0% | C: -10.0% | D: u | E: u | F: -4.4%

> CCOCCNc1ncnc2c1CN(C1CCCNC1)C(=O)CN2C (stereo not drawn)
  A: 1.9 | B: u | C: 13.2% | D: -14.0% | E: -12.9% | F: x

> CNC(=O)N1CCC(C2CCN(C(=O)Cc3c(F)cccc3Cl)C2)CC1 (stereo not drawn)
  A: -4.7 | B: u | C: 4.1%[12.5 µM] | D: -22.6% | E: u | F: -10.5%

> CC1(C)CNC(=O)c2nc(C3(CN4CCCC4)CC3)[nH]c2C1
  A: -7.5 | B: 3.8% | C: 1.0% | D: -3.5% | E: -17.4% | F: -0.4%

> O=C1c2c(nc(COc3ccccc3)n2Cc2ccccc2)NCCN1CCOc1ccccc1
  A: -16.4 | B: -40.3% | C: -20.4% | D: u | E: 31.6µM* | F: -0.6%

11 entries from above, set out differently:
Molecule,IP6K1 inhibitor,SNCA expr inh,HEK293 viab,3T3 cytotox,HEK293 tox,FLuc inh
O=C(CCc1cccc(F)c1)N1CCN(Cc2ccccc2)CC(O)C1 (stereo not drawn),11.5,-3.2%,-4.4%,-28.0%,-23.0%,0.9%
CCCN1CCCn2nc(CNC(=O)c3ccc(OC)nc3OC)cc2C1,0.8,4.0%,3.2%,-16.3%,-0.1%,3.3%
Cn1cccc1C(=O)NCC1Cn2cccc2C(=O)N1Cc1ccccc1 (stereo not drawn),-0.4,-4.9%,-4.0%,i,-23.4%,0.6%
CC(C)n1cc(-c2nc3cc(S(=O)(=O)N4CCCC4)ccc3n2C)cn1,10.7,-31.8%,2.8%,-34.9%,u,5.3%
CC(C)CCN1CC2(CCCN(C(=O)c3cc(C(F)(F)F)[nH]n3)C2)CCC1=O (stereo not drawn),8.8,-5.5%,-11.6%,44.7µM*,-12.7%,1.4%
O=C(NC1CCCCC1)[C@@H]1C[C@@H](O)CN1C1CCN(C(=O)c2ccsc2)CC1,8.3,5.3%,2.9%,-15.6%,-27.5%,-4.2%
COCCS(=O)(=O)c1ncc(CN(CCO)Cc2ccccc2)n1Cc1ccccc1,2.2,-23.0%,-10.1%,2.8%,-3.9%,-0.1%
COc1ccc(CC(=O)NCCNC(=O)c2cccc(-c3ccsc3)c2)cc1,-3.0,6.4%,8.2%[12.5 µM],-13.2%,-25.8%,x
O=C(C1CC1)N1CCCC(Nc2ccc(F)c(F)c2)C1 (stereo not drawn),8.9,28.9%,-1.0%,-6.4%,-8.0%,0.3%
N#Cc1ccccc1CN1CCNc2nc(CNc3ccc(F)cc3)n(Cc3ccccc3)c2C1=O,-19.5,-34.0%,-10.0%,u,u,-4.4%
CCOCCNc1ncnc2c1CN(C1CCCNC1)C(=O)CN2C (stereo not drawn),1.9,u,13.2%,-14.0%,-12.9%,x
